# BJeLR lethal: BJeLR cell viability loss | BJeLR (HRASV12) viability, CellTiter-Glo ATP luminescence, 48 h; reference of the scale not given here | inhibition, % (test concentration not listed) | 0.17% of 300,000 active | AID 1554;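 active means replicate mean above 50%; inconclusive means above 50% but judged a plate artefact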;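 further: 50 nL library stock added to about 25 µL; numbers are from one replicate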
# Mtb hypoxia inh: inhibitors of hypoxia-regulated fluorescent reporter in Mycobacterium tuberculosis. M. tuberculosis hypoxia-regulated fluorescent reporter, fluorescence. fluorescence inhibition, % (concentration not given with the values). 0.1% of 300,000 active;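 active means 35 to 45% if threefold the growth effect, above 45% if 1.5-fold the growth effect; inactive means the rest, general growth blockers included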;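 further: wells of about 50 µL received 100 nL stock; 0% = vehicle wells and 100% = reference inhibitor wells; whole bacteria with a GFP reporter of the hypoxia response; strong numbers were not always called active; many hits fall short of the cut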
# RN4220 kill: kills Staphylococcus aureus RN4220; AID 1259311; inhibition, % (concentration not given with the values); 0.33% of 330,000 active; S. aureus RN4220 growth, OD600, 16 h;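 active means z-score of -3 or lower and OD600 up to 0.18 on both plates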;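 further: plate controls were untreated cells for no effect and reference antibiotic for full effect; stock transfer was 100 nL into about 80 µL; one replicate is shown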
# PrP UTR inh: inhibition of PrP 5' UTR reporter expression; inhibition, % (concentration not given with the values); cell-based PrP 5' UTR mRNA reporter, plate reader; 0.35% of 340,000 active; AID 488862;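 active means every replicate at 50% or more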;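 further: 0 = median of the neutral control wells; tested in H4 reporter cells; numbers are from one replicate; inactives centre near -14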
# Sa ugtP lethal: kills S. aureus RN4220 lacking UgtP; 0.54% of 330,000 active; AID 1259309; S. aureus RN4220 ugtP deletion, OD600 growth, 16 h; some inactives read as strong as hits; growth inhibition, % (test concentration not listed);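 active means z-score under -3 and OD600 up to 0.15 on both plates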;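 further: plate controls were untreated wells for no effect and antibiotic for full effect; wells of about 80 µL received 100 nL stock; the first replicate is given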
# Bead autofluor: compound fluorescence in toxin protease inhibitor counterscreen; compound autofluorescence counterscreen, microsphere flow cytometry; stronger effect = higher value; fluorescence intensity (no concentration beside the values); AID 624483; 3.1% of 360,000 active;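 active means at least 3 SD above the mean of all compounds, about 16000 in these data; inconclusive means too few beads counted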;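 further: 100 nL of 1 mM stock went into each well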
# Mtb hypoxia inh growth: also measured in Mtb hypoxia inh; calls as there; growth inhibition, %; measured here: M. tuberculosis growth (absorbance);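 0% = vehicle and 100% = reference antibiotic; read after six days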
# Active calls of the source: *; ? = inconclusive; / = no result given.
no.	mol	Mtb hypoxia inh	Sa ugtP lethal	BJeLR lethal	Mtb hypoxia inh growth
1	Oc1c(CN2CCOCC2)cc(CN2CCOCC2)cc1CN1CCOCC1	3.7	1.0	/	1.1
2	COc1cc2ccccc2cc1C(=O)Nc1nccs1	10.1	34.3	-3.3	10.8
3	CC1=C(C(=O)OCc2ccccc2)C(c2ccoc2)C(C#N)=C(N)O1 (stereo unspecified)	9.2	0.2	-4.9	1.3
4	CCC1(CC)Cc2ccccc2-c2nc3ccccc3c(=O)n21	2.1	35.2	2.0	5.3
5	Cc1cc(C)nc(SCc2nnc(SCC(=O)N3CCOCC3)o2)n1	-1.4	-2.4	-3.3	-1.1
6	O=C(NC(=S)N1CCN(C(c2ccccc2)c2ccccc2)CC1)c1ccc(S(=O)(=O)N2CCOCC2)cc1	14.6	27.2	2.6	3.8
7	O=C(Oc1ccc(OC(=O)N2CCOCC2)cc1)c1ccccc1	/	6.6	-6.1	/
8	CC(=O)C1=C(C)N(Cc2ccccc2)C(=O)NC1CCc1ccccc1 (stereo unspecified)	7.0	-10.5	/	8.5
9	COc1cc(C(=O)NCC2(N3CCCCC3)CCCCC2)ccc1OCC(=O)N1CCOCC1	-3.9	9.4	9.1	-1.7
10	Cc1cccnc1N(C(=O)Nc1ccccc1)C1=NCC(C)(C)S1	19.3	14.9	-5.3	9.3
11	COc1ccc(C(C(=O)OCCN(C)C)c2ccccc2)cc1 (stereo unspecified)	/	3.3	3.1	/
12	O=C1CCCN1c1ccc(C(=O)N(Cc2nnc(-c3ccccc3Cl)o2)C2CC2)cc1	-0.4	3.8	-1.0	-1.5

no.	Bead autofluor	PrP UTR inh	RN4220 kill
1	3558	3.9	0.8
2	4186	-32.7	38.0
3	6669	-9.0	2.5
4	3391	-28.0	-3.0
5	4147	6.2	1.4
6	9074	-21.0	-5.6
7	3136	-18.9	12.8
8	/	/	5.9
9	4832	-23.8	1.7
10	/	-13.5	-0.4
11	2620	-12.8	2.3
12	/	-10.7	2.2

# (further entries)
no.	mol	Mtb hypoxia inh	Sa ugtP lethal	BJeLR lethal	Mtb hypoxia inh growth
13	Cc1nnc(NC(=O)CCNC(=O)c2ccccc2Cl)s1	-13.7	14.2	-5.6	-9.4
14	COc1ccc(NC(=O)C2CC3CCC2C3)c(OC)c1 (stereo unspecified)	1.2	0.5	0.1	-2.2
15	CC(=O)c1cc(C#N)c(SCc2ccccn2)nc1C	6.0	0.4	7.1	8.0
16	Cc1ccsc1C(=O)N1CCCC(CO)(Cc2ccccc2F)C1 (stereo unspecified)	/	/	-9.9	/
17	Cc1ccc(OCC(=O)NCCNC(=O)c2cnccn2)cc1C	-0.9	1.1	0.8	4.1
18	CCOC(=O)CNC(=O)C(Cc1ccccc1)NC(=O)OCc1ccccc1 (stereo unspecified)	/	/	-0.6	/
19	COc1ccccc1CNC(=O)C1CCC(=O)N(CCCc2ccccc2)C1 (stereo unspecified)	5.0	1.5	4.3	2.4
20	COc1ccc(-n2c(=O)c3ccccc3n(CC(=O)NC3CCCCC3)c2=O)cc1OC	-7.2	7.3	6.8	-4.9
21	CCOC(=O)c1cnn(C(=O)c2ccccc2)c1N	6.8	7.2	5.6	8.8
22	Cc1cc(C)cc(NC(=S)N(CCCN2CCN(C)CC2)Cc2cccs2)c1	-1.6	-3.9	-10.4	1.5
23	O=C(Nc1nccs1)c1ccccn1	-0.3	3.0	-3.0	-1.1
24	Cn1c(SCC(=O)Nc2ccccc2F)nnc1-c1ccc(S(=O)(=O)N2CCOCC2)cc1	9.0	9.1	0.9	3.9

no.	Bead autofluor	PrP UTR inh	RN4220 kill
13	4551	-5.0	1.9
14	?	/	-4.4
15	4576	-15.8	1.8
16	5504	2.8	/
17	4144	-12.6	1.0
18	3475	-8.0	/
19	5740	-9.6	1.4
20	4421	-8.1	3.1
21	1986	-20.1	4.7
22	3870	-8.7	4.0
23	3368	-57.8	2.3
24	14730	-17.1	0.3

# Continuation.
no.	mol	Mtb hypoxia inh	Sa ugtP lethal	BJeLR lethal	Mtb hypoxia inh growth
25	COc1ccccc1C(=O)ON=C(c1ccccc1)c1ccncc1	13.0	0.3	/	2.9
26	O=c1cc(-c2ccccc2)[nH]n1-c1nc2ccccc2s1	/	91.5*	-0.9	/
27	Cc1nn(C)c(C(=O)NC(=S)Nc2ccccc2Br)c1Cl	8.1	0.5	-0.4	15.8
28	O=C(Nc1c(Cl)cccc1Cl)C1CCN(C(=O)c2cccs2)CC1	2.5	8.2	2.3	7.6
29	CCOc1ccccc1N1CCN(C(=O)c2ccncc2)CC1	18.0	2.6	-3.1	5.6
30	O=C(c1ccco1)N1CCC(c2nc3c(nnn3Cc3ccc(F)cc3)c(=O)[nH]2)CC1	8.8	6.7	-4.3	9.1
31	Cc1ccc(-c2cccc(-c3cc(=O)oc4ccc(C(C)(C)C)cc34)c2)cc1	0.7	6.1	/	0.1
32	Cc1ccc(OCCCc2c(C)n[nH]c2C)cc1	8.0	-1.0	4.0	4.6
33	Cn1cc(Br)cc2nc(C(F)(F)F)nc1-2	/	4.1	4.5	/
34	CCc1ccc(C(=O)Nc2ccc(OC)c(S(=O)(=O)N3CCCCC3)c2)cc1	-5.6	3.8	/	6.7
35	C#Cc1ccc([C@@H]2C=C(C(=O)OCC=C)O[C@H](OCCCCO)C2)cc1	/	/	-4.8	/
36	Nc1nc(SCC(=O)c2ccc([N+](=O)[O-])cc2)n[nH]1	8.8	-3.8	-5.5	1.5

no.	Bead autofluor	PrP UTR inh	RN4220 kill
25	/	/	4.4
26	2774	-26.7	80.5
27	7127	-17.1	6.5
28	3930	-20.0	-1.2
29	7846	-11.4	-0.2
30	3540	-14.8	-1.4
31	3118	-12.4	-4.0
32	4159	-22.4	12.6
33	4648	-12.3	-3.9
34	8878	-15.2	-2.2
35	3877	-25.7	/
36	2025	-16.4	4.3

# Fetched by structure from the list above, 5 records:
no.	mol	Mtb hypoxia inh	Sa ugtP lethal	BJeLR lethal	Mtb hypoxia inh growth
33	Cn1cc(Br)cc2nc(C(F)(F)F)nc1-2	/	4.1	4.5	/
32	Cc1ccc(OCCCc2c(C)n[nH]c2C)cc1	8.0	-1.0	4.0	4.6
31	Cc1ccc(-c2cccc(-c3cc(=O)oc4ccc(C(C)(C)C)cc34)c2)cc1	0.7	6.1	/	0.1
30	O=C(c1ccco1)N1CCC(c2nc3c(nnn3Cc3ccc(F)cc3)c(=O)[nH]2)CC1	8.8	6.7	-4.3	9.1
29	CCOc1ccccc1N1CCN(C(=O)c2ccncc2)CC1	18.0	2.6	-3.1	5.6

no.	Bead autofluor	PrP UTR inh	RN4220 kill
33	4648	-12.3	-3.9
32	4159	-22.4	12.6
31	3118	-12.4	-4.0
30	3540	-14.8	-1.4
29	7846	-11.4	-0.2

# Carrying on.
no.	mol	Mtb hypoxia inh	Sa ugtP lethal	BJeLR lethal	Mtb hypoxia inh growth
37	CCN(CC(=O)Nc1ccc2c(c1)OCCO2)C(=O)C(C)Oc1ccc(Cl)cc1 (stereo unspecified)	-4.7	3.2	-5.1	9.8
38	O=C(NN=Cc1cccc(OC(=O)N2CCOCC2)c1)c1cccs1	-8.4	-4.8	/	0.9
39	Cc1ccc(-c2nc(N/N=C/c3ccncc3)c3ccccc3n2)cc1	/	/	12.7	/
40	Cc1ccc(CCNC(=O)CCS(=O)(=O)c2ccc3c(c2)oc(=O)n3C)cc1	-9.0	-5.2	1.8	0.6
41	COc1ccc(NC(=S)NCCc2c[nH]c3ccc(OC)cc23)c(OC)c1	-1.5	2.6	-6.5	-7.2
42	COc1cc2ccccc2cc1C(=O)NCc1ccncc1	6.7	8.3	1.6	-8.9
43	CCO[C@@H]1OC(C(=O)NCc2ccccc2)=C[C@H](c2cn(C(C)=O)c3ccccc23)[C@H]1CCCO	/	/	-3.1	/
44	O=C(NCc1ccccc1F)C1CCCN1C(=O)Nc1ccc(F)cc1 (stereo unspecified)	-2.6	5.7	-3.1	-5.5
45	CCn1c(CNc2ccc(F)cc2)nnc1SCC(=O)Nc1ccccc1OC	/	6.2	-2.2	/
46	O=C(CN1CCN(S(=O)(=O)c2ccc(C(F)(F)F)cc2)CC1)N1CCNC1=O	0.2	5.2	/	-2.7
47	O=C(c1ccc(CS(=O)(=O)c2cccc(C(F)(F)F)c2)o1)N1CCN(c2ccccn2)CC1	/	/	-2.6	/
48	O=C(c1ccc(F)cc1)C1CCN(C(=O)c2c(F)cccc2F)CC1	12.3	6.7	0.1	9.5

no.	Bead autofluor	PrP UTR inh	RN4220 kill
37	6041	-21.3	3.5
38	/	/	-1.1
39	7790	15.0	/
40	6227	-29.0	-6.0
41	10363	-8.4	2.5
42	6249	-16.1	2.2
43	2858	-9.0	/
44	/	13.5	-0.2
45	3128	-38.8	-1.5
46	6389	-2.9	2.0
47	23435*	-20.8	/
48	4405	-16.5	2.8

# The listing continues.
no.	mol	Mtb hypoxia inh	Sa ugtP lethal	BJeLR lethal	Mtb hypoxia inh growth
49	Cc1ccc(-n2ncc3c(=O)[nH]c(SCC(=O)N4CC(=O)Nc5ccccc54)nc32)cc1	6.2	8.6	/	7.5
50	C[C@H](CO)N1C[C@H](C)[C@@H](CN(C)S(=O)(=O)c2cccs2)Oc2ccc(NC(=O)C3CC3)cc2C1=O	3.2	-6.0	/	5.7
51	Fc1ccc(-n2cc(-c3ccccc3)c3c(NN4CCOCC4)ncnc32)cc1	5.4	7.3	2.8	-1.3
52	COc1ccc2cc3cc(C(=O)NCc4cccs4)oc3nc2c1	-4.0	5.1	-9.6	1.7
53	Cc1nc(/C(N)=N/OC(=O)c2ccccc2Cl)c(C(F)(F)F)o1	4.3	8.8	0.7	5.4
54	CCOc1ccccc1NC(=O)c1cccc(NC(=O)C2CCCC2)c1	-8.9	-6.8	15.5	-6.9
55	COc1ccc(C2CCCCCN2Cc2nc3ccccc3c(=O)n2CC(N)=O)cc1 (stereo unspecified)	-2.1	2.3	-5.4	1.6
56	CCOc1ccccc1N1CCN(C(=O)c2ccc(S(=O)(=O)Nc3ccccc3)cc2)CC1	-1.2	-2.5	/	11.6
57	O=C(/C=C/NNC(=O)c1ccccc1)c1ccc(Br)cc1	/	/	-1.8	/
58	CCCCN1C(N)=NC[C@@H]1CCCCN	/	/	8.2	/
59	Cn1c(=O)c2c(SCc3ccccn3)nc(C3CC3)nc2n(C)c1=O	-1.7	-5.2	-21.4	8.2
60	CCN(CC)CCCN=Cc1c(O)n(-c2cccc(C)c2C)c(=O)[nH]c1=O	/	-0.1	8.4	/

no.	Bead autofluor	PrP UTR inh	RN4220 kill
49	3327	-31.2	3.4
50	3536	-4.3	1.2
51	2254	7.5	2.5
52	6459	-2.7	0.8
53	7122	-20.9	5.0
54	4428	-16.2	0.2
55	6079	-6.8	7.9
56	8760	-13.3	0.6
57	3264	-22.0	/
58	4369	-25.6	/
59	6248	-19.6	-4.3
60	4200	7.7	-1.3

# (next part)
no.	mol	Mtb hypoxia inh	Sa ugtP lethal	BJeLR lethal	Mtb hypoxia inh growth
61	CC(Oc1ccc(Br)cc1)C(=O)NNC(=O)CCN1CCN(c2ccccc2)CC1 (stereo unspecified)	7.2	4.3	-0.6	10.8
62	CCNC(=S)NNc1nnc(-c2ccccc2)c(-c2ccccc2)n1	1.3	12.3	5.1	-6.9
63	Cc1ccc2cccc(NC(=S)NC(=O)c3ccn(C)n3)c2n1	12.5	54.6	5.2	4.1
64	COc1ccccc1NC(=O)C(C)Sc1nnnn1C (stereo unspecified)	5.3	1.1	-3.3	5.9
65	CC(C)n1cc(CN2CCC(C(=O)Nc3cccc(-c4cccc(Cl)c4)c3)CC2)cn1	13.9	-18.1	0.5	11.7
66	CC(C)(C(=O)c1ccccc1)/[N+]([O-])=C/c1ccc(F)cc1	7.8	-2.4	-11.8	10.8
67	Cc1ccc(S(=O)(=O)N(C)c2ccccc2C(=O)N2CCOCC2)cc1	6.1	4.4	-19.6	10.8
68	CN(C)c1ccc(-c2ccccc2)nn1	/	6.4	0.1	/
69	O=c1[nH]c(O)c(/C=C2\C=Nc3ccccc32)[nH]1	-9.6	0.3	-1.6	11.3
70	CC(C)(C)C1CCc2c(sc(NC(=O)c3cc(C4CC4)on3)c2C#N)C1 (stereo unspecified)	6.7	8.9	2.2	10.8

no.	Bead autofluor	PrP UTR inh	RN4220 kill
61	6175	-22.4	0.4
62	3240	-6.4	2.4
63	11901	-14.7	1.3
64	4346	-27.7	7.4
65	6345	-15.6	-10.5
66	9958	/	2.9
67	5525	-5.0	1.0
68	4413	-52.0	-0.1
69	4146	-11.0	0.4
70	6128	-14.1	9.7

# Compound activity from PubChem.
